miR-21 reporter = miR-21 reporter, rising signal; AID 2288; HeLa miR-21 FLuc reporter, luciferase, 48 h; Potency, µM (titrated, usually from 38.3 µM), for the others: top-dose reporter change, positive = more light; 340,000 tested, under 10 active; active = well fitted rising curve with a large enough effect; inconclusive = small, poorly fitted or top-dose-only effect; inactive = no such curve, though single readings can be large or run the other way;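 also: % of control where 0% means no effect; miR-21 action dims this reporter so a rising signal means less miR-21 action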
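Luminescence from a firefly luciferase reporter carrying a miR-21 binding site downstream, stably expressed under a CMV promoter in HeLa cells that make miR-21 endogenously, reports miRNA modulation after 48 h compound exposure up to approximately 40uM final.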
Rango dissoc inh = inhibitors of RanGTP-induced Rango-importin beta complex dissociation. O95149+P62826. Biochemical FRET Rango-importin beta, RanGTP-induced dissociation. Potency, µM (highest dose often 46.1 µM), inactives show top-dose activity change, negative = inhibition. 340,000 tested, 0.071% active; active means falling FRET ratio curve, often poorly fitted, with flat reads before Ran was added; inconclusive means other falling curves, or compound fluorescence or quenching; inactive means flat or rising ratio curve;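 also: potency is read from the fitted curve at half-maximal effect; % of control where 0% means no effect; nearly all actives have a fitted effect of over 45% in size; -100% = wells without RanGTP and RCC1; the record marks most hits as doubtful in a second field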
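FRET read at 45 min, room temperature: inhibitors block the CFP/YFP signal rise when RanGTP (0.6 uM Ran, 2 mM GTP, 0.2 uM RCC1) frees Rango (0.1 uM) from importin beta (0.25 uM). Pre-read after 5 min compound exposure flags interference.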
GLA inh pH 4.5 = inhibitors of human alpha-galactosidase A at pH 4.5. P06280. purified enzyme, 4-MU-alpha-Gal fluorescence, pH 4.5. activity change, negative = inhibition, % at 105 µM. 230,000 tested, under 10 active. AID 1467; inconclusive = small, poorly fitted or top-dose-only inhibition, or a rising curve; inactive = flat fitted curve, though single readings scatter; no compound was filed as active;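 also: 0% = full activity with enzyme and -100% = basal without enzyme; dose as in the result columns while the protocol names 77 µM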
Target sequence (P06280 whole entry, looked up): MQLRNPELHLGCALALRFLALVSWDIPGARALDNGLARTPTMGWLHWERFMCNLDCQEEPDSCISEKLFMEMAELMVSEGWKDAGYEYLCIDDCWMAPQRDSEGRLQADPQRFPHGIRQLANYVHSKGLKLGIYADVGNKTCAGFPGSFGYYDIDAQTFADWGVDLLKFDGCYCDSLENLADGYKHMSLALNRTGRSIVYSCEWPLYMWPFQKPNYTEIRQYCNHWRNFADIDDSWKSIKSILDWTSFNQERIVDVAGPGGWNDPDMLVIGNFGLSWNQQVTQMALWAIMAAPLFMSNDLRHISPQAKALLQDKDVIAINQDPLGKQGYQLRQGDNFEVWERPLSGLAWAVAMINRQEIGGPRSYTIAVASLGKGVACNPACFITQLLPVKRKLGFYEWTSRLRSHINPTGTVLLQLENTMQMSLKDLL
Rango complex inh = prevents formation of the Rango-importin beta complex; Q14974; Rango CFP/YFP FRET sensor + importin beta, 45 min; Potency, µM (titrated, usually from 92.2 µM), inactives show at the highest dose inhibition of complex formation; 340,000 tested, 0.031% active; AID 540263; active = rising FRET ratio curve, often small or poorly fitted; inconclusive = mostly compound fluorescence or quenching in the first reads; inactive = flat curves in all reads;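 also: potency is read from the fitted curve at half-maximal effect; 0% = DMSO wells and 100% = buffer wells lacking importin beta; nearly all actives have a fitted effect of over 15% in size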
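Inhibition scored from the CFP 486 nm/YFP 530 nm FRET ratio 45 min after adding 0.125 microM importin beta to 50 nM Rango biosensor preincubated 5 min with compound (room temperature, PBS with DTT, Tween-20, BSA). No-importin wells as positive control.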
* = called active by the depositor; u = inconclusive; x = no result given; & = joins results of further samples; [ ] = remark or other dose. A portion of the library (hit frequency here may not be typical).

compound	miR-21 reporter	Rango dissoc inh	GLA inh pH 4.5	Rango complex inh
O=C(c1ccc(Br)o1)N1CCN(c2ccc3nnc(-c4ccc(F)cc4)n3n2)CC1	0%	-19%	0	-0.7%
CC(=O)Oc1ccc2c3c(c(=O)oc2c1)CCCC3	-17%	21µM*	x	u
O=C(Cc1ccccc1)Nn1c(O)c(/C=C2\C=Nc3ccccc32)sc1=S	-2%	u	-4	u
Cn1cc(CNCc2cnc3ccccn23)c(-c2ccc(Oc3ccccc3)cc2)n1	5%	4%	-8	1.6%
COc1ccc(C(=O)Nc2ccnn2C2CCN(C3CCC3)CC2)cc1	-1%	2%	x	-4.1%
Cc1cc(C)nc(N/N=C/c2ccccc2OCc2ccccc2)n1	-14%	0%	-16	-2.0%
O=C(NC(Nc1nc2ccc([N+](=O)[O-])cc2s1)(C(F)(F)F)C(F)(F)F)c1ccccc1Cl	29%	u	-12	u
CCN1CCN(CCNC(=O)c2ccc(CS(=O)(=O)c3ccccc3C)o2)CC1	-3%	1%	-2	-1.4%
CC(C)(C)NS(=O)(=O)c1ccc(OCC(=O)NCCC2=CCCCC2)cc1	-2%	-9%	-7	-1.7%
O=C(Cc1ccccc1F)Nc1ccc2c(c1)CCC2	-69%	1%	x	-6.5%
O=C(O)CCc1ccc(-c2cccs2)n1CCc1ccccc1	-13%	-16%	5	u
O=S(=O)(c1cccc(C(F)(F)F)c1)N1CCN(CC(O)COCc2ccccc2)CC1 (stereo not given)	x	4%	x	2.2%
COc1ccc(-c2nnc3ccc(SCC(=O)Nc4cc(C)on4)nn23)cc1	5%	x	12	x
O=C(NCc1ccc(F)cc1)C1CCN(S(=O)(=O)N2CCC3(CC2)OCCO3)CC1	3%	-2%	8	-2.3%
O=C1/C(=C/c2ccc(F)cc2)Oc2cc(OC(=O)N3CCOCC3)ccc21	-17%	-5%	-4	-0.5%
Cc1nc(SCC(=O)N2CCc3ccccc32)n[nH]1	-39%	u	11	-1.4%
O=C(CCc1nnc2ccc(NCc3ccccc3)nn12)NC1CCCCC1	-5%	1%	x	0.8%
CCN(CC(=O)Nc1ccc(NC(C)=O)cc1)C(=O)c1cccc2ccccc12	x	-2%	x	-2.4%
CSC1=N/C(=C\c2ccccc2F)C(=O)S1	-6%	1%	6	-4.2%
Cc1cc2nnc(SCC(=O)NC3CCCCC3)n2c(N)n1	0%	2%	x	1.4%
CC(=O)N1c2ccc(S(=O)(=O)NCC3CCC(C(=O)N4CC(C)CC(C)C4)CC3)cc2CC1C (stereo not given)	21%	0%	x	2.2%
Cc1ccc(NC(=O)C(C)N=C2NS(=O)(=O)c3ccccc32)cc1 (stereo not given)	-20%	4%	-3	-0.5%
CCCCC(=O)N1CCN(c2nc3ccc(OCC)cc3s2)CC1	1%	15%	x	-3.4%
O=C1OC(=O)C2C1[C@@H]1CC[C@H]2O1 (stereo not given in full)	6%	4%	10	1.5%
CC(=O)Nc1cn(-c2ccccc2)nc1-c1ccccc1	1%	-8%	-2[21.1 µM]	-0.1%
Cc1ccc2c(CN(C)Cc3ccc(Cl)cc3Cl)cc(=O)oc2c1	-7%	-3%	x	-3.7%
Cc1cc(CNC(=O)C2CCC(=O)N(CCc3ccc(Cl)cc3)C2)no1 (stereo not given)	-4%	0%	x	-0.5%
COc1cc(NC(=O)COC(=O)CCc2nc3ccccc3c(=O)[nH]2)cc(OC)c1	x	6%	x	-2.8%
COc1ccc(C/C(=N\OC(C)=O)c2ccc(OC)cc2)cc1	-26%	14%	x	-3.7%
COc1nc(NCCN2CCOCC2)nc(Nc2ccc([N+](=O)[O-])cc2)n1	3%	-9%	2	0.4%

Fetched by compound from the entries so far, 5 records:
compound	miR-21 reporter	Rango dissoc inh	GLA inh pH 4.5	Rango complex inh
Cc1cc(CNC(=O)C2CCC(=O)N(CCc3ccc(Cl)cc3)C2)no1 (stereo not given)	-4%	0%	x	-0.5%
O=C1OC(=O)C2C1[C@@H]1CC[C@H]2O1 (stereo not given in full)	6%	4%	10	1.5%
CC(=O)Nc1cn(-c2ccccc2)nc1-c1ccccc1	1%	-8%	-2[21.1 µM]	-0.1%
CC(=O)N1c2ccc(S(=O)(=O)NCC3CCC(C(=O)N4CC(C)CC(C)C4)CC3)cc2CC1C (stereo not given)	21%	0%	x	2.2%
COc1nc(NCCN2CCOCC2)nc(Nc2ccc([N+](=O)[O-])cc2)n1	3%	-9%	2	0.4%

(more compounds)
compound	miR-21 reporter	Rango dissoc inh	GLA inh pH 4.5	Rango complex inh
COc1cccc(CNC(=O)N2CCN(S(=O)(=O)c3ccc(Cl)cc3)CC2)c1	4%	13%	x	1.8%
Cc1cc(C)c(OCCOCCN2CCNCC2)c(C)c1	-1%	-8%	-4	5.3%
CCn1c(SCC(=O)NC2CCCC2)nnc1C(C)C	6%	6%	x	-0.8%
CNC(=O)/C(C#N)=c1\s/c(=C/C(=O)OC)c(=O)n1-c1ccccc1	-1%	-11%	7	u
CCOC(=O)c1sc(NC(=O)CN2C(=O)NC3(CC(C)CC(C)(C)C3)C2=O)c(C(=O)OCC)c1C (stereo not given)	-15%	-2%	-7	2.2%
O=C(COC(=O)c1ccc(O)cc1)NCc1ccc2c(c1)OCO2	0%	-3%	-15	0.1%
O=C(O)CCCn1cc(NC(=O)COc2ccc(F)cc2F)cn1	2%	2%	x	1.4%
CC(C)(C)OC(=O)C[C@H]1C/C=C\C[C@H](CC(=O)N(CCO)Cc2ccccc2)C(=O)NCCOC1=O	x	5%	x	0.5%
CCN(CC)S(=O)(=O)c1ccc(N2CCOCC2)c(NC(=O)CC23CC4CC(CC(Br)(C4)C2)C3)c1	-3%	1%	-6	-0.1%
CN1c2ccccc2C(O)=C(C(=O)Nc2ccccc2)S1(=O)=O	0%	4%	-11	0.4%
Cc1cc(N2CCCCCC2)n2nc(C)c(-c3ccccc3)c2n1	0%	9%	x	-0.7%
Cc1ccc(NC(=O)CN2C(=O)COc3ccc(S(=O)(=O)N4CCCC4)cc32)c(C)c1	-1%	6%	x	0.1%
O=c1nc(Nc2ccc([N+](=O)[O-])cc2)[nH]c(=O)[nH]1	-2%	1%	x	-0.2%
CCOc1ccc2nc(N3CCCN(C(=O)Nc4ccccc4C)CC3)c(C#N)cc2c1	-6%	u	-11	u
Cc1ccc(SCCNC(=O)C(CO)(CO)CO)cc1	-5%	10%	10	1.8%
CC(=O)c1ccc(OCCCC(=O)NC2CCC(C)CC2)cc1 (stereo not given)	-10%	-1%	x	0.3%
COc1ccc(NC(=O)c2cc(-c3ccc(C)o3)nc3ccccc23)c(OC)c1	x	-7%	x	-4.0%
Cc1ccc(Nc2ncnc3c2oc2ccccc23)cc1	-50%	-4%	6	u
COc1ccccc1C(=O)NNC(=S)NC(=O)c1cc(OC)c(OC)c(OC)c1	-5%	3%	-6	1.3%
O=C1C=C(c2ccc3[nH]ccc3c2)C[C@@H](c2ccc(Cl)cc2)C1	x	-12%	x	u
O=C(CSc1ncnc2c1oc1ccccc12)c1cccs1	-51%	-7%	-1	0.6%
Cc1cccc(C)c1NCc1n[nH]c(=S)n1-c1ccccc1	-3%	2%	3	0.3%
Cc1cc(C#N)c(C)c(SCc2[nH]nc3c2C(c2ccccc2)C(C#N)=C(N)O3)n1 (stereo not given)	-2%	-10%	-6	-2.0%
CC(=O)N[C@@H](CC(=O)N[C@H](CCC(=O)O)C(=O)O)C(=O)O	x	-10%	x	0.1%
CC1CCN(C(=S)c2ccc3c(c2)OCO3)CC1	-12%	u	0	1.7%
O=C(COC(=O)CSc1nnc(-c2ccc(Cl)cc2)o1)NCc1ccc2c(c1)OCO2	-2%	-2%	3	-0.5%
COc1cc(OC)cc(C(=O)NCCSCc2ccco2)c1	-6%	x	0	x
OCCN(Cc1ccccc1)Cc1ncccc1O	x	15%	x	-0.2%
NC(N)=Nc1nc2ccc(Br)cc2c(=O)[nH]1	-13%	-9%	-3	0.5%
OC1(c2cccs2)CN(c2ccc(Br)cc2)C2=[N+]1CCCS2 (stereo not given)	4%	16%	-8	3.7%
COc1ccc(CCNC(=O)c2cc3ccccn3n2)c(OC)c1OC	-28%	-17%	-8	-6.3%
COCCNc1ncnc2c1cnn2-c1ccc(Cl)cc1	-34%	6%	6	-3.5%
CC12CCC(C(=O)NCCCn3ccnc3)(OC1=O)C2(C)C (stereo not given)	-6%	12%	4	-3.6%
O=S(=O)(NCC1CN(S(=O)(=O)c2c(F)cccc2F)C1)c1ccc2c(c1)OCCO2	x	14%	x	0.8%
COC(=O)C1CCN(S(C)(=O)=O)CC1	0%	-6%	1	0.9%
COc1ccc(C)cc1S(=O)(=O)N1CCC(C(=O)NCCC2=CCCCC2)CC1	2%	-6%	2	u
CCN(Cc1ccccc1)C(=O)COc1cc(=O)n(CC)c2ccccc12	2%	-14%	-2	4.7%
O=C(c1cc(Cl)ccc1OCc1ccccc1)N1CCOCC1	-29%	-13%	x	1.0%
CCC1=Nc2cc(C(=O)NCc3ccco3)ccc2Sc2ccc(Cl)cc21	14%	-8%	-2	4.9%
O=C(CCC1CCCCC1)NCc1cccs1	-2%	-1%	1	1.9%
CC(C)(C)OC(=O)N1CCC(C(=O)Nc2cccc(C(=O)NCCCc3ccccc3)c2)CC1	x	1%	x	-0.4%
NC(=O)c1cc2ccc(O)cc2oc1=NCc1ccccc1	-14%	u	u	u
O=C(O)c1cc(/C=C/c2ccc(N3CCOCC3)cc2)nc2ccccc12	25%	u	-3	u
Cc1cc(CNC(=O)C2(C(F)(F)F)C/C(=C\Cc3ccccc3)CCCO2)nn1C (stereo not given)	x	-7%	x	-0.1%
Brc1ccc(-c2noc3c2-c2nc(C4CCCCC4)sc2CC3)cc1	x	18%	x	-1.0%
Cc1ccc(OCC(O)CN2CCN(CC(O)COC(C)C)CC2)c(C(C)(C)C)c1 (stereo not given)	-13%	0%	-2	4.3%
CCCc1[nH]n(-c2ccc(F)cc2)c(=O)c1C=Nc1ccc(C)cc1	-11%	4%	0	-1.9%
Cc1[nH]c2ccc(F)cc2c1CCN(Cc1ccncc1)C(=S)Nc1ccc(F)cc1	u	1%	-2	-3.0%
CC(=O)N1CCCc2cc(S(=O)(=O)N3CCCC(C(=O)Nc4ccc(C)cc4C)C3)ccc21 (stereo not given)	0%&-1%	-6%	x	-1.4%
Cc1ccc(C(=O)N/C(=C\c2ccc(-c3ccc(Br)cc3)o2)C(=O)NC2CCS(=O)(=O)C2)cc1 (stereo not given)	-3%	1%	5	1.0%

Exported field by field: 2 of the compounds above
> NC(=O)c1cc2ccc(O)cc2oc1=NCc1ccccc1
  miR-21 reporter: -14%
  Rango dissoc inh: u
  GLA inh pH 4.5: u
  Rango complex inh: u

> O=C(O)c1cc(/C=C/c2ccc(N3CCOCC3)cc2)nc2ccccc12
  miR-21 reporter: 25%
  Rango dissoc inh: u
  GLA inh pH 4.5: -3
  Rango complex inh: u

(next part)
compound	miR-21 reporter	Rango dissoc inh	GLA inh pH 4.5	Rango complex inh
Cc1ccccc1CC(=O)Nc1cccc(S(=O)(=O)N2CCCC2)c1	x	17%	x	-0.9%
Cc1cccc(N2CCN(S(=O)(=O)c3ccc4[nH]c(=O)c(=O)[nH]c4c3)CC2C)c1 (stereo not given)	-4%	x	1	x
O=C(CN1C(=O)C2CC=CCC2C1=O)Nc1ccc(S(=O)(=O)Nc2ncccn2)cc1 (stereo not given)	0%	16%	-10	1.5%
Cc1nc(C)n(CC(=O)c2ccc(Cl)cc2Cl)n1	-2%	-4%	-7	7.7%
N/C(=N\OC(=O)c1cc(-c2ccccc2)nc2ccccc12)c1ccccn1	2%	-10%	-9	-0.1%

Screens: PubChem BioAssay, National Center for Advancing Translational Sciences (NCATS)
